Bioassay records deposited in PubChem by several laboratories.
YopH PTP inh – blocks Yersinia enterocolitica YopH tyrosine phosphatase. fluorescence Ex485/Em525. inhibition, %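 (about 10 µM by stock and volumes)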. 140,000 compounds, 0.16% hits. AID 898;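 active = inhibition of 50% or more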;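 note: controls were vehicle for no effect and minimum signal wells for full effect; inactives centre near -20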
Arbovirus inh – blocks arbovirus infection | arbovirus infection cell-based antiviral screen | inhibition, % at 10 µM | 200,000 compounds, 0.37% hits;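 active = inhibition from about 30%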;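 note: bluetongue infection of BSR cells; cell survival read as ATP light after 72 h; 0% = infected wells without compound and 100% = uninfected wells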
Mtb H37Rv – M. tuberculosis H37Rv growth inhibitors, H37Rv strain (AID 1626) | M. tuberculosis H37Rv growth inhibition; higher % means a stronger effect | inhibition, % at 10 µM, or IC50 in µM where a hit was titrated | 220,000 compounds, 0.95% hits;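 active = confirmed in a dose series; inconclusive = inhibition above 80% but not taken into the dose series; inactive = below 80% or under 30% at every dose of the series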;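 note: bacteria incubated seven days before Alamar blue readout; 0% = bacteria only wells and 100% = bacteria with antibiotic wells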
Mtb betalactam – beta-lactam sensitization of Mtb H37Rv | 330,000 compounds, 0.27% hits | M. tuberculosis H37Rv growth with meropenem, percent inhibition; hits of this screen are not shown here | inhibition, % at 25 µM;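 active = about 74% or more and at least 40 points above the plate without the antibiotic, then above 30% in a dose series; inconclusive = first-round hits that could not be retested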;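 note: growth measured after seven days incubation then overnight dye step; 0% = bacteria only wells and 100% = bacteria with antibiotic; twin plates without the antibiotic show which effects depend on it; some results filed as inactive read as strong as hits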
RecA intein inh – inhibitors of M. tuberculosis RecA intein splicing; cell-free RecA intein splicing, fluorescence; AID 2221; inhibition, %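 (about 9 µM by stock and volumes)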; P9WHJ3; 290,000 compounds, 0.75% hits; in the data active = inhibition above about 30%; inconclusive = no clear call, values can overlap the other calls;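 note: 0% = vehicle wells and 100% = reference inhibitor control wells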
Target sequence (P9WHJ3 whole entry, looked up): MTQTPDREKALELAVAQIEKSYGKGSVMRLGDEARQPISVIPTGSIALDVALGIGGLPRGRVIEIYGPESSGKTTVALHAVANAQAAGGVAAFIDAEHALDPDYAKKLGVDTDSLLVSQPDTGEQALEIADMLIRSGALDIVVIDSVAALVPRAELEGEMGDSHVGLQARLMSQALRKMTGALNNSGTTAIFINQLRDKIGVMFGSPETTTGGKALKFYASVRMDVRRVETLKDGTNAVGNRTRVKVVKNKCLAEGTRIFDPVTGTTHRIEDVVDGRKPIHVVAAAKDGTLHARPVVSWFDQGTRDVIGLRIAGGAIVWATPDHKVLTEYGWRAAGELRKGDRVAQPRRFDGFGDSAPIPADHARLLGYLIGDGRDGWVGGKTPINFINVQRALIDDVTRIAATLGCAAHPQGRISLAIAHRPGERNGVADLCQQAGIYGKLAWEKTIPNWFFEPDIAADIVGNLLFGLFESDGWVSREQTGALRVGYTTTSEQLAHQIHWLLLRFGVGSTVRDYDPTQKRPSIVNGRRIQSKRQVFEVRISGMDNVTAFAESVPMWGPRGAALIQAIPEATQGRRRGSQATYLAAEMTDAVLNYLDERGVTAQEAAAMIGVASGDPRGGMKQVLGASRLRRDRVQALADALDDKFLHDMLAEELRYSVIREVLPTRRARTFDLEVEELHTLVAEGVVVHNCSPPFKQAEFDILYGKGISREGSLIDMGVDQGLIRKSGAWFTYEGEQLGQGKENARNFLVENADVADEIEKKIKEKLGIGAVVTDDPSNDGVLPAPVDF
Arbovirus inh repeat – also measured in Arbovirus inh; calls as there; inhibition, %; measured here: 10K subset replicate screen; many hits read low in the repeat;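 first of two repeat runs on a subset; 0% = infected and 100% = uninfected wells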
* = called active by the depositor; ? = inconclusive; nt = no result given.

SMILES	YopH PTP inh	Arbovirus inh	Mtb H37Rv	Mtb betalactam	RecA intein inh	others
Cc1ccc(C(=O)Cn2cc([N+](=O)[O-])nc2C)cc1	nt	nt	-12%	-2	-0.5
CCOc1ccc(CCNC(=O)CCn2nc(C)c3c(C)n(-c4ccccc4)nc3c2=O)cc1	nt	nt	nt	-7	0.7
Cc1cccc(N2C(=O)NC(=O)/C(=C\C=C\c3ccco3)C2=O)c1	nt	nt	-3%	1	-7.5
CCOC(=O)C1CCCN(C(=O)CSc2ccc(Br)cc2)C1 (centres undefined)	nt	3	12%	14	2.0
N#CC1=C(N)Oc2n[nH]c(-c3cccnc3)c2C1c1cc(F)ccc1F (centres undefined)	nt	1	5%	0	0.3
Cc1oncc1C(=O)N1CCCC(CO)(Cc2ccc(F)cc2F)C1 (centres undefined)	nt	nt	nt	2	1.9
CC(=O)Nc1ccc(Oc2cnc3ccccc3n2)cc1	-29	8	-1%	2	5.2
Cc1cccc(C)c1OCC(=O)Nn1c(C)nc2ccccc2c1=O	-19	-6	9%	-8	1.4
Cc1nn(Cc2ccccc2)c(C)c1NC(=O)c1cc(-c2ccc3c(c2)OCO3)on1	-37	-15	-2%	1	-0.2
Cc1cccc(NC(=O)NCC(c2ccco2)N2CCCCC2)c1 (centres undefined)	nt	-16	-10%	5	3.0
CCOC(=O)c1cnn(-c2cc(Oc3cccc(C)c3)ncn2)c1N	-26	-2	3%	32	0.3
CCOc1ccc(-c2cccc(NC(=O)COc3ccc(Cl)cc3)c2)nn1	nt	nt	nt	?	2.4
CC(=O)Nc1ccc(SC(C)C(=O)NC2CCCC2)cc1 (centres undefined)	nt	nt	nt	-1	-2.4
CCOc1ccc(NS(=O)(=O)c2ccc(C(=O)N(C)CCc3ccc(OC)c(OC)c3)cc2)cc1	nt	nt	nt	-8	-0.7
CCCN1C(=O)/C(=C/c2nc3ccccc3c(=O)[nH]2)c2cc(C)ccc21	nt	nt	-3%	45	3.0
COc1cc(OC)c(S(=O)(=O)N2CCOCC2)cc1S(=O)(=O)N1CCOCC1	nt	nt	nt	-1	-1.9
Cc1cc(C)n2nc(SC3CCCCN(C(=O)c4ccc(F)cc4)C3=O)nc2n1 (centres undefined)	-37	-1	-1%	-16	5.4
COC(=O)c1c(NC(=O)COC(=O)CCc2ccc(S(=O)(=O)N3CCOCC3)cc2)sc2c1CCC2	-20	-6	6%	-7	-3.8
COc1ccccc1CNC(=O)C1CC2Cn3c(nc4cc(C)c(C)cc43)C2N1C (centres undefined)	nt	nt	nt	-11	-2.9
C=C(C)Cn1c(SCC)nc2ccccc2c1=O	-7	-4	8%	20	2.9
COc1ccc(N(C(=O)C(C)C)S(=O)(=O)c2ccc(Cl)cc2)cc1	-5	4	-1%	-1	7.6
CC(=O)Nc1ccc(NC(=O)COC(=O)C2c3ccccc3Oc3ccccc32)cc1	nt	1	9%	nt	-0.3
O=C(NN1C(=O)C2C3c4ccccc4C(c4ccccc43)C2C1=O)c1ccccc1 (centres undefined)	-11	-13	6%	1	1.7
Cc1ccc(CNC(=O)C2CCCN(C(=O)Nc3ccc(F)cc3)C2)cc1 (centres undefined)	nt	nt	nt	-4	1.7
Cc1c(C(c2cccc(Br)c2)c2c(C)n(C)n(-c3ccccc3)c2=O)c(=O)n(-c2ccccc2)n1C	nt	nt	nt	2	2.7
O=C(CN(c1ccc2c(c1)OCCO2)S(=O)(=O)c1ccccc1)Nc1ccc2c(c1)OCO2	-19	-8	1%	-3	6.8
CCn1c(SCC(=O)Nc2ccc3c(c2)OCO3)nc2c1c(=O)n(C)c(=O)n2C	-22	4	1%	0	1.2
O=C(NNC(=O)c1ccc([N+](=O)[O-])cc1Cl)c1ccncc1	-20	4	-11%	-1	2.4
CC(C)C[C@H](NC(=O)c1nc[nH]c1C(=O)N[C@@H](CCCCNC(=O)OC(C)(C)C)C(=O)OC(C)(C)C)C(=O)OCc1ccccc1	nt	nt	nt	-5	-0.3
COc1cc(SC)ccc1C(=O)OCC(=O)NCCNC(=O)COC(=O)c1ccc(SC)cc1OC	nt	nt	nt	8	-2.7
CC1CC(C)CN(c2nc3c(c(=O)n(C)c(=O)n3C)n2C)C1 (centres undefined)	-30	12	-4%	4	-0.3
COC(=O)c1cccc([N+](=O)[O-])c1CN1CCCC(C(N)=O)C1 (centres undefined)	nt	3	-7%	7	-4.1
O=S(=O)(c1ccccc1)N1CCN(Cc2cccc(Cl)c2)CC1	-139	17	10%	-1	nt
Cc1ccc(C(=O)N2CC=C(c3ccccc3)CC2)o1	nt	nt	nt	-8	4.3
CNC(=S)N(CCc1c(C)[nH]c2ccc(C)cc12)Cc1cccs1	nt	-17	7%	25	nt
Cn1c(O)c(C(=O)c2ccccc2Cl)c(=O)n(C)c1=O	9	12	-17%	-4	-1.5

4 entries picked at random from those above, as already listed:
SMILES	YopH PTP inh	Arbovirus inh	Mtb H37Rv	Mtb betalactam	RecA intein inh	others
Cc1c(C(c2cccc(Br)c2)c2c(C)n(C)n(-c3ccccc3)c2=O)c(=O)n(-c2ccccc2)n1C	nt	nt	nt	2	2.7
CC1CC(C)CN(c2nc3c(c(=O)n(C)c(=O)n3C)n2C)C1 (centres undefined)	-30	12	-4%	4	-0.3
O=C(NNC(=O)c1ccc([N+](=O)[O-])cc1Cl)c1ccncc1	-20	4	-11%	-1	2.4
CNC(=S)N(CCc1c(C)[nH]c2ccc(C)cc12)Cc1cccs1	nt	-17	7%	25	nt

Carrying on.
SMILES	YopH PTP inh	Arbovirus inh	Mtb H37Rv	Mtb betalactam	RecA intein inh	others
O=C1CC(C(=O)Nc2cc(Cl)ccc2Cl)n2ncnc2N1 (centres undefined)	nt	2	-5%	-5	-0.4
CC(C)C1Cc2ccccc2-c2[nH]c(=S)[nH]c(=O)c21 (centres undefined)	nt	nt	nt	-5	1.1
Cc1c(OC(C)C(=O)NCCCN2CCOCC2)ccc2c1oc(=O)c1ccccc12 (centres undefined)	nt	nt	nt	-1	-1.5
CCn1cc([N+](=O)[O-])c(C(=O)N2CCN(C(=O)c3ccco3)CC2)n1	-3	3	-5%	2	-0.2
Cc1cc2nc(-c3ccc(SCc4ccccn4)nc3)[nH]c2cc1C	nt	-27	7%	6	-0.1
COc1ccccc1-c1ccc(=O)n(CC(=O)NCc2cccs2)n1	nt	1	-1%	-2	1.5
COc1ccc(NS(=O)(=O)c2ccc3oc(SCC(N)=O)nc3c2)cc1	nt	nt	nt	-5	-2.7
O=C(CSc1nnc(-c2ccccn2)n1Cc1ccccc1)Nc1ccc2c(c1)OCO2	-29	-5	-7%	68	-1.0
O=C(Nc1ccccc1C(=O)N1CCN(c2ccccc2)CC1)c1ccco1	-7	1	-3%	-6	1.7
Cc1ccc(C(OCC(O)CN2CCCCC2)c2ccccc2)cc1 (centres undefined)	nt	nt	nt	1	3.6
Cc1ccc(C)c(-n2cc(CNCCc3cnccn3)c(-c3ccccc3)n2)c1	nt	-9	6%	-8	-2.9
COc1cccc(-n2nnnc2S(C)(=O)=O)c1	10	-29	?	100	91*
CCOc1cccc(CNCc2ccc(C(=O)O)cc2)c1	nt	-4	7%	-6	-0.2
CC1CCN(S(=O)(=O)c2ccc3[nH]c(=O)c(=O)[nH]c3c2)CC1	16	8	0%	-12	1.4
Cc1ccc(OCCOc2cccc(C=C3C(=O)NC(=O)NC3=O)c2)c(C)c1	nt	nt	nt	37	2.2
CCOC(=O)C1(CCOC)CCN(C(=O)Cc2ccsc2)CC1	nt	nt	nt	2	-0.3
Cc1nc2ccc(NC(=O)Cc3ccsc3)cc2s1	-10	-1	-4%	23	1.3
CC(C)(C)c1ccc(-c2nc(C#N)c(NCCCn3ccnc3)o2)cc1	nt	nt	?	97	nt
Cn1cc(/C=C2\SC(=S)N(NC(=O)c3ccccc3Cl)C2=O)c2ccccc21	-24	-8	2%	-9	nt
CC(NC(=O)Cc1ccc(-c2ccccc2)cc1)c1ccccc1 (centres undefined)	-17	-4	15%	16	-0.8
COc1cc(/C=N/NC(N)=O)ccc1OCC(=O)N1C(C)CCCC1C (centres undefined)	nt	3	-1%	-1	1.6
COc1ccccc1/C=C/C=N/n1c(-c2ccco2)n[nH]c1=S	nt	nt	1%	-1	0.3
CC1=NN(C(N)=S)C(=O)C1N=Nc1ccc(Br)cc1 (centres undefined)	nt	nt	nt	85	-1.9
Cc1[nH]nc2c1C(c1cccnc1)N(c1ccc(Br)cc1)C2=O (centres undefined)	-23	-2	-2%	-2	-1.5

Continued; the last 2 above are carried over.
SMILES	YopH PTP inh	Arbovirus inh	Mtb H37Rv	Mtb betalactam	RecA intein inh	others
CC1=NN(C(N)=S)C(=O)C1N=Nc1ccc(Br)cc1 (centres undefined)	nt	nt	nt	85	-1.9
Cc1[nH]nc2c1C(c1cccnc1)N(c1ccc(Br)cc1)C2=O (centres undefined)	-23	-2	-2%	-2	-1.5
Nc1nc(SCc2ccccc2)[nH]c(=O)c1-c1ccccc1	-6	-1	-1%	5	8.7
CNC(=S)N1CCN(c2nc(-c3cccc(OC)c3)cs2)CC1	nt	nt	nt	9	1.4
CC1=C(C(=O)Nc2ccc(C)cc2C)C(c2ccc(Cl)cc2)n2nc(C(=O)OC(C)C)nc2N1 (centres undefined)	-21	-33	6%	-4	-1.7
Cc1ccc(SCC(=O)N2N=CCC2c2ccccc2)cc1 (centres undefined)	nt	0	4%	-2	1.5
CCCN(CC(=O)Nc1ccccc1OC)C(=O)CCNC(=O)c1ccccc1OC	nt	nt	nt	-2	-7.1
COc1ccccc1OCC(O)Cn1c(=N)n(Cc2ccccc2)c2ccccc21 (centres undefined)	-5	-16	-3%	11	6.2
CCc1sc(C(=O)N2CCCN(C)CC2)cc1Br	nt	nt	nt	-7	0.4
O=c1cc(N2CCN(c3ccccc3F)CC2)[nH]c(=O)n1-c1ccc(Br)cc1	-37	-14	-1%	-3	-3.9
CC(=O)N(C)c1ccc(N=C2C(=O)Nc3ccccc32)cc1	nt	nt	nt	2	2.6
CCOC(=O)c1nc(C)nc(Sc2n[nH]c(-c3cc(C(F)(F)F)cc(C(F)(F)F)c3)n2)c1C	nt	nt	-9%	7	2.7
CCSc1nnc(N2C(=O)c3ccc(C(=O)c4ccc(C(=O)O)cc4)cc3C2=O)s1	nt	nt	nt	-15	-2.8
O=C(Nc1c2c(nn1-c1ccccc1)CSC2)c1ccc(N2C(=O)CCC2=O)cc1	nt	11	-5%	-7	0.2
CCCCn1c(N)c(N(CC(C)C)C(=O)CSCc2c(C)noc2C)c(=O)[nH]c1=O	nt	nt	nt	-9	-0.3
O=S(=O)(c1ccc(Cl)cc1)N1CCN(Cc2ccncc2)CC1	nt	nt	nt	-2	1.1
CCOCCCNCc1ccc(OC)cc1	-29	-3	-2%	-4	1.6
NNC(=O)CS(=O)(=O)c1ccc(Cl)cc1	nt	nt	4%	0	0.0
O=C(O)c1cnc(-c2ccccc2)nc1Oc1ccccc1	nt	-2	0%	-9	0.7
CC(C)(C)OC(=O)N[C@@H](Cc1ccccc1)C(=O)N1CCC(C(=O)N[C@@H](CCC(N)=O)C(=O)O)CC1	nt	nt	nt	2	-2.7
O=C(CSc1nnc(-c2c[nH]c3ccccc23)o1)c1ccccc1	-34	-11	1%	4	4.7
COc1ccc(NC(=O)CN(c2ccc(C)cc2)S(C)(=O)=O)c(OC)c1	1	8	1%	4	-0.8
CCC(C)(c1nnnn1-c1c(C)cccc1C)N(N=O)c1ccccc1Cl (centres undefined)	-19	-1	-6%	-2	nt
CC(=O)Nc1c(C(=O)N2CCN(c3ccccn3)CC2)cnn1-c1ccc(C)cc1	-15	0	-8%	-7	4.7
CCCN(CC1CC1)c1nc(C)nc(Nc2c(Cl)cc(Cl)cc2Cl)c1Cl	nt	nt	4%	13	-0.3
CC(C)[C@H](CO)Nc1nc(Nc2ccc(Cl)c(C(=O)O)c2)c2ncn(C(C)C)c2n1	nt	nt	12%	-19	-0.8
COc1cccc(/C=N\NC(=O)c2sc(N)nc2C)c1OC	-23	-1	-7%	-4	-2.9
O=C(c1cccc(S(=O)(=O)NCCOc2ccccc2)c1)N1CCN(c2ncccn2)CC1	31	6	-1%	-13	-1.6
Cc1oc(-c2ccccc2)nc1C(=O)OCC(=O)NC(=O)NCC(C)C	-17	1	-3%	-5	2.4
NC(=O)Cn1c(S(=O)(=O)Cc2ccccc2)nc2ccccc21	-32	nt	3%	-5	3.0
Cc1ccc2c(c1)N(C(=O)CCC(=O)N1CCC(C(N)=O)CC1)CCO2	nt	nt	nt	6	-1.9
O=C(O)C[C@H]1c2ccccc2S(=O)(=O)N1C1CCCC1	nt	nt	0%	3	-0.5
CCSc1nnc(NC(=O)C2CC=CCC2C(=O)O)s1 (centres undefined)	-20	8	-6%	-5	-1.1	Arbovirus inh repeat=7
Cc1ccc(CSc2nnc(C)c(=O)[nH]2)cc1	nt	6	3%	-5	-0.1
O=C(Nc1cccc(F)c1)c1ccc(CSc2ccccc2)o1	-3	2	0%	-1	11
Cc1ccc(CN2CCC(CO)(CC3CCCCO3)CC2)o1 (centres undefined)	nt	1	-7%	1	0.5

An excerpt; rates above refer to the full screens.
